Screening data deposited in PubChem BioAssay by several laboratories.
hERG protect: hERG rescue from dofetilide block, primary screen, cell-based, CHO-hERG, FluxOR thallium flux, dofetilide IC70; 0.51% of 310,000 active; activation (rescue from dofetilide block), less the hit threshold, % at 10 µM; AID 1511, 2009; dofetilide IC70 present;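 active = activation above the mean of controls blocked by dofetilide plus 5 SD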;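 also: thallium influx through hERG after potassium depolarization seen as dye fluorescence rise; in these data hits start at about 4.7%; inactives centre near -7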
KCNK3 block: human KCNK3 channel inhibitors, primary screen, CHO cells, FluxOR thallium flux, B-score. 0.84% of 340,000 active. Potassium channel subfamily K member 3 (Homo sapiens), O14649. FluxOR fluorescence; active compounds read low. B-score at 10 µM;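 active = B-score under library mean minus 4 SD, starting fluorescence ratio at most library mean plus 5 SD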;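 also: more negative B-score means stronger inhibition of thallium flux through KCNK3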
PolyA inhibitor: polyadenylation inhibitors in yeast reporter cells, primary screen, luminescence, S. cerevisiae; AID 1875, 2009; S. cerevisiae SKY197-pL101 polyadenylation reporter, beta-gal luminescence; efflux-impaired pdr1/pdr3 knockout yeast; score 100 = 6 SD above DMSO; 0.02% of 300,000 active; calls only at 12 µM;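 active = lowest replicate activity score at least 50, where 100 means six control SD above control mean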;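 also: yeast exposed to compound for 9 h at 30 °C; higher score means more reporter readthrough which indicates perturbed polyadenylation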
GSK3 alpha inh: blockers of GSK3A enzyme activity – biochemical, luminescence, cell-free homogeneous, HTS, primary screen; Glycogen synthase kinase-3 alpha (Homo sapiens), P49840; inhibition, % at 10 µM; 0.1% of 320,000 active; GSK-3 alpha kinase, ADP-Glo luminescence, 60 min;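 in the data active = inhibition above about 50%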;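 also: GST-tagged GSK-3 alpha with peptide substrate and 25 µM ATP; 0% = DMSO neutral wells and 100% = GW8510 positive control wells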
Target sequence (P49840 whole entry, looked up): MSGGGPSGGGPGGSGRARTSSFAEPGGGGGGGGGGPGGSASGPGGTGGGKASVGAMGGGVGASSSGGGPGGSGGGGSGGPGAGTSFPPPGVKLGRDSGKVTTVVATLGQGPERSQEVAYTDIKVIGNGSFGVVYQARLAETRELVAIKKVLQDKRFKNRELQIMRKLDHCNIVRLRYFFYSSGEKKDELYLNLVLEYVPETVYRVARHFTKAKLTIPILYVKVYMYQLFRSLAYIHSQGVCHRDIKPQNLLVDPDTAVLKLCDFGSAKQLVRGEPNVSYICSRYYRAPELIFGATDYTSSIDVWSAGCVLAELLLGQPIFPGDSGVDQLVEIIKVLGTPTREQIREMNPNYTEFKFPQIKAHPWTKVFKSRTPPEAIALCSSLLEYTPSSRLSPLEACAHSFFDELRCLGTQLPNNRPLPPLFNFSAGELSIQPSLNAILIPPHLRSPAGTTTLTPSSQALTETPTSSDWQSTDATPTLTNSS
RGS4 act: RGS4 potentiators or activators, primary screen, cell-based, HEK293 M3R inducible RGS4, calcium flux | carbachol calcium flux Fluo4; active compounds read low | B-score at 10 µM | 0.92% of 310,000 active;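 active = B-score of the integrated calcium signal more than 4 SD below the library mean, with starting fluorescence not abnormally high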;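 also: negative B-score means reduced calcium response which marks RGS4 activation or potentiation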
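Material: Inducible-RGS4 HEK293 cells carrying M3 receptor; also added: carbachol at ECmax as muscarinic agonist stimulus; incubation: compound preincubation 20 min at room temperature before agonist; signal: Fluo4-AM (2 µM) calcium-flux fluorescence, kinetic read; measure: integrated calcium ratio converted to B score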
KCNK9 block: KCNK9 potassium channel inhibitors, primary screen, HEK293 cells, thallium flux | Potassium channel subfamily K member 9 (Homo sapiens), Q9NPC2 | B-score at 10 µM | 1.2% of 310,000 active | FluxOR thallium flux fluorescence; active compounds read low;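 active = ratio B-score over 3 SD below the library mean, with starting fluorescence within 5 SD of its mean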;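 also: negative B-score means less thallium flux so channel inhibition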
KCNQ1 block: inhibitors of human KCNQ1 channel, primary screen, cell-based, thallium flux, high-throughput. Potassium voltage-gated channel subfamily KQT member 1 (Homo sapiens), P51787. CHO-K1 KCNQ1, FluxOR thallium flux fluorescence; active compounds read high. B-score at 10 µM. 1.3% of 310,000 active. AID 2642, 2010;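 active = compounds whose thallium flux B-score, printed positive for inhibition, exceeds three library SD while starting fluorescence stays within three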;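 also: channel opened by potassium depolarization with thallium stimulus after 20 min compound exposure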
GSK3B inh: human GSK3beta kinase inhibitors, primary screen, biochemical, cell-free homogeneous, HTS; GST-GSK3beta kinase, ADP-Glo luminescence, 60 min; active compounds read low; activity score (negative = inhibition), % at 10 µM; 0.038% of 300,000 active;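 active = more than half of replicate wells score below -50%, meaning over 50% inhibition versus plate controls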;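 also: 0% = median DMSO wells and -100% = median GW8510 positive control wells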
Target sequence (P49841 whole entry, looked up): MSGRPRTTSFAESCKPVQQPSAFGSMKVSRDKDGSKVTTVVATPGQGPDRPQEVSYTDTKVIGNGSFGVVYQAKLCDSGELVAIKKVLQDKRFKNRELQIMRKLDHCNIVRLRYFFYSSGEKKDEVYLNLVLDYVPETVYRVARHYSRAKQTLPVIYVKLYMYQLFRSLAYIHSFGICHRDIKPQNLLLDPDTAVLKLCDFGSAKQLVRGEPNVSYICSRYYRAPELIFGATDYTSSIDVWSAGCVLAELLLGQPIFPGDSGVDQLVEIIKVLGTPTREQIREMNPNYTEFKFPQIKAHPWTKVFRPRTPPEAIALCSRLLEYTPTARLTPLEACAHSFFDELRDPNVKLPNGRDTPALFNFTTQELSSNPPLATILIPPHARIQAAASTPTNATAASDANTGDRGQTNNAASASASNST
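Test system: GST-tagged human GSK3beta kinase, cell-free; evaluation: activity score scaled between in-plate DMSO and GW8510 controls; measured by: ADP-Glo luminescence; incubation: 60 min reaction, RT; benchmarks: DMSO and 20 µM GW8510; reagent: peptide substrate plus 25 µM ATP (final); medium: Tris/MgCl2 kinase buffer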
KCNQ1 act: potentiators or activators of KCNQ1 channel, primary screen, cell-based, thallium flux, high-throughput; CHO-K1 KCNQ1, thallium flux FluxOR fluorescence; active compounds read high; Potassium voltage-gated channel subfamily KQT member 1 (Homo sapiens), P51787; 0.35% of 310,000 active; B-score at 10 µM;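 active = fluorescence ratio B-score, a plate-corrected score, at least three library SD, with initial intensity B-score within 5 SD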
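System: CHO-K1 cells stably expressing KCNQ1 / Medium: assay buffer for compound exposure, DMSO matched across wells / Reagent: thallium- and potassium-containing depolarizing buffer / Compound: one concentration, matched DMSO / Incubation: 20 min compound pretreatment at room temperature / Measured by: kinetic FluxOR fluorescence, 10 s baseline plus 110 s post-stimulus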
HDAC3 inhib: HDAC3 deacetylase inhibitors, primary screen, biochemical, fluorescence, cell-free homogeneous | inhibition, % at 8.3 µM | 0.15% of 320,000 active | recombinant HDAC3, fluorogenic peptide/trypsin coupled; in the data active = inhibition above about 26%, passing the limit was not always enough
Starred values were filed as active, the others as inactive; i = inactive; . = not tested or not shown. Some of the compounds tested. The share of hits here may be higher or lower than overall.

smiles	hERG protect	KCNK3 block	PolyA inhibitor	GSK3 alpha inh	RGS4 act	KCNK9 block	KCNQ1 block	GSK3B inh	KCNQ1 act	HDAC3 inhib
COc1cc(/C=C2/NC(=O)N(c3cccc(Cl)c3)C2=O)ccc1O	-7	i	i	.	i	i	i	0	i	-2
COc1ccc(C(=O)N/N=C/C(C)c2ccccc2)cc1OC (stereo not drawn)	-9	i	i	-3	i	i	i	4	i	-12
O=c1c2cccc3c2c(nn1CN1CCOCC1)-c1ccccc1-3	-14	i	i	17	i	i	i	1	i	4
O=C(CN1C(=O)NC2(CCCC2)C1=O)Nc1nc2ccccc2s1	-7	i	i	1	i	i	i	-5	i	6
COc1ccc(CNc2nc(SC)n[nH]2)cc1OC	.	i	i	-1	.	.	.	-2	.	-3
CC(C)Oc1cccc(C(=O)NC(=S)Nc2ccc(Cl)c(C(=O)O)c2)c1	-13	i	i	-3	i	i	i	4	i	1
CCC(C)(C)n1nnnc1C(c1cc2cccc(C)c2[nH]c1=O)N1CCN(C(=O)c2ccco2)CC1 (stereo not drawn)	-9	i	i	-3	i	i	i	-2	i	5
Cc1ccc(-c2nn(-c3ccccc3)c3[nH]c(=O)c(CNCc4ccccc4)cc23)cc1	-7	i	i	0	i	i	i	-24	i	-2
O=C(CSc1ccc(C(F)(F)F)cc1[N+](=O)[O-])NCCOc1ccccc1	-10	i	.	-2	i	i	i	2	i	4
COc1ccc2c(c1)CCCC21NC(=O)NC1=O (stereo not drawn)	-4	i	i	-4	i	i	i	0	i	-1
CCOC(=O)c1cc(-c2ccccc2)nn1Cc1cc(C)no1	-7	i	i	-4	i	i	i	-1	i	-7
Cc1ccc(C)c2nc(N3CCCC3)c(C#N)cc12	-9	i	i	-1	i	i	i	.	i	-17
Fc1cccc(Cc2noc(CN3CCOCC3)n2)c1	-12	i	i	-2	i	i	i	-2	i	.
CN(C)CC(C)(C)NS(=O)(=O)c1ccc(Cl)cc1	-1	i	i	-3	i	i	i	2	i	0
Cc1cc(-n2nnc3ccccc32)nc2ccccc12	-11	i	i	0	i	i	i	1	i	-5
S=C(Nc1ccc2cn[nH]c2c1)Nc1ccc(Cl)cc1Cl	-11	i	i	9	i	i	i	-4	i	-2
Cc1ccc(O)c(NC(=S)NC(=O)c2ccccc2Cl)c1	-10	i	i	-3	i	i	i	1	i	-1
Cc1cc2nc(N)sc2cc1[N+](=O)[O-]	5.0*	i	i	5	i	i	i	-1	i	-3
Cc1cccc(CCNC(=O)c2cc(S(=O)(=O)N3CCCCC3)c[nH]2)c1	-6	i	i	-1	i	i	i	3	i	-8
Cc1nc(NC(=O)CN2CCOCC2)sc1-c1ccccc1	-4	i	i	4	i	i	i	-3	i	-2
O=S(=O)(NC1CCCCCC1)c1cccc2cccnc12	-5	i	i	-2	i	i	i	0	i	2
CC(=O)c1ccc(N/N=C(/C(N)=O)C2=NC(C)(C)Cc3ccccc32)cc1	-17	i	i	25	i	i	i	-1	i	5
O=c1[nH]c(SCC2CCCCO2)nc2ccccc12 (stereo not drawn)	.	i	i	0	.	.	.	0	.	1
CNc1nc(N(C)C)nc(N(C)C)n1	-5	i	i	-4	i	i	i	3	i	-3
Cc1nn2c(-c3ccccc3)ccnc2c1-c1ccccc1	-5	i	i	.	i	i	i	3	i	-3

Reprinted from the part before: 3 compounds; new compounds follow.
smiles	hERG protect	KCNK3 block	PolyA inhibitor	GSK3 alpha inh	RGS4 act	KCNK9 block	KCNQ1 block	GSK3B inh	KCNQ1 act	HDAC3 inhib
O=c1[nH]c(SCC2CCCCO2)nc2ccccc12 (stereo not drawn)	.	i	i	0	.	.	.	0	.	1
CNc1nc(N(C)C)nc(N(C)C)n1	-5	i	i	-4	i	i	i	3	i	-3
Cc1nn2c(-c3ccccc3)ccnc2c1-c1ccccc1	-5	i	i	.	i	i	i	3	i	-3
CCOC(=O)c1c(NC2OC(=O)c3c2ccc(OC)c3OC)sc(C(=O)OC(C)(C)C)c1C (stereo not drawn)	-14	i	i	-3	i	i	i	2	i	5
COc1cc(NS(=O)(=O)c2ccc(N/C=C\C(=O)c3ccc(F)cc3)cc2)nc(OC)n1	-7	i	i	-2	i	i	i	1	i	-7
CCOc1cc(S(=O)(=O)NCCN2CCOCC2)c(C)cc1C	-4	i	i	1	i	i	i	0	i	-3
O=C(O)/C(=C\c1ccc(Cl)c([N+](=O)[O-])c1)c1ccc(S(=O)(=O)N2CCCCC2)s1	-1	i	i	2	i	i	i	10	i	8
N#CC(c1ccccc1F)(c1ncc(C(F)(F)F)cc1Cl)N1CCOCC1 (stereo not drawn)	-8	i	i	1	i	i	i	-3	i	-2
O=C(O)c1ccc(NS(=O)(=O)c2cccc3cccnc23)cc1	-2	i	i	-5	i	i	i	-1	i	5
Cc1cc(NC(=O)CSc2ccc3nnc(-c4ccc(F)cc4)n3n2)no1	-5	i	i	-1	i	i	i	-2	i	14
COc1cccc(-c2nc(-c3ccccc3)no2)c1	-5	i	i	-2	i	i	i	-3	i	-1
O=S(=O)(c1ccc(Br)cc1)N1CCN(c2cc(-c3ccccc3)nc3ncnn23)CC1	-15	i	i	0	i	i	i	-29	i	-4
CCOC(=O)c1cc(-c2ccncc2)nc2c1c(C)nn2C	-1	i	i	.	i	i	i	-15	i	0
CCOC(=O)CN1C(=O)S/C(=C/c2ccc(O)c([N+](=O)[O-])c2)C1=O	-9	i	i	.	i	i	i	2	i	6
c1csc(-c2nc(NCC3CCCO3)c3ccccc3n2)c1 (stereo not drawn)	-14	i	i	2	i	i	i	0	i	0
CC1(C)NC(=O)N(CNc2cc(Cl)ccc2Cl)C1=O	0	i	i	3	i	i	i	4	i	-5
Cc1csc(CNc2ncnc3ccc(-c4ccoc4)cc23)c1	.	i	.	-1	.	.	.	.	.	0
CN(Cc1ccccc1)c1ncnc2ccc(Br)cc12	-10	i	i	23	i	i	i	1	i	4
O=C1NC(=Nc2ccccc2Cl)S/C1=C\c1cccc([N+](=O)[O-])c1	-8	i	i	-1	i	i	i	.	i	-7
O=C(/C=C/c1ccccc1)NCc1ccco1	-10	i	i	4	i	i	i	2	i	6
O=c1cc(-c2ccncc2)oc2c1ccc1ccccc12	-12	i	i	54*	i	i	i	-1	i	0
COc1ccc(/C=C/C(=O)c2cc(F)ccc2OC(=O)c2ccccc2C)cc1OC	-5	i	i	-2	i	i	i	2	i	9
Cc1nc2cc(F)ccc2n1C1CCN(S(=O)(=O)c2ccccc2)CC1	-4	i	i	10	i	i	i	-8	i	6
COc1cc(C(=O)OC2CCCCC2=O)cc(OC)c1C (stereo not drawn)	-10	i	i	-1	i	i	i	2	i	6
COc1ccc(-c2cc(-c3n[nH]c(=S)n3-c3cc(OC)ccc3OC)[nH]n2)cc1	-12	i	i	-3	i	i	i	-1	i	8
O=C(c1ccco1)N(CCC(c1ccccc1)c1ccco1)Cc1ccccc1 (stereo not drawn)	-16	i	i	-4	i	-7.2*	i	-2	i	0
Cc1cccc(C)c1Nc1nnc(SCC(=O)NC(=O)c2cccn2C)s1	0	i	i	-2	i	i	i	-1	i	7
O=C(O)c1ccc2cccc(Cl)c2c1O	-3	i	i	9	i	i	i	-1	i	-7
Clc1ccccc1-c1nn2c(Cn3cnc4ccccc43)nnc2s1	-13	i	i	11	i	i	i	-11	i	-1
CC(=O)N/C(=C\c1ccccc1)C(=O)OC(C)C(=O)Nc1ccccc1F (stereo not drawn)	.	i	.	4	.	.	.	.	.	1
Cc1nn(-c2ccc(Cl)cc2)c(Cl)c1/C=N/NC(=O)c1ccc(NS(=O)(=O)c2cccs2)cc1	-12	i	i	-2	i	i	i	2	i	0

An excerpt of these results, as labelled records:
O=S(=O)(c1ccc(Br)cc1)N1CCN(c2cc(-c3ccccc3)nc3ncnn23)CC1
  hERG protect: -15 | KCNK3 block: i | PolyA inhibitor: i | GSK3 alpha inh: 0 | RGS4 act: i | KCNK9 block: i | KCNQ1 block: i | GSK3B inh: -29 | KCNQ1 act: i | HDAC3 inhib: -4

CCOC(=O)CN1C(=O)S/C(=C/c2ccc(O)c([N+](=O)[O-])c2)C1=O
  hERG protect: -9 | KCNK3 block: i | PolyA inhibitor: i | GSK3 alpha inh: . | RGS4 act: i | KCNK9 block: i | KCNQ1 block: i | GSK3B inh: 2 | KCNQ1 act: i | HDAC3 inhib: 6

Clc1ccccc1-c1nn2c(Cn3cnc4ccccc43)nnc2s1
  hERG protect: -13 | KCNK3 block: i | PolyA inhibitor: i | GSK3 alpha inh: 11 | RGS4 act: i | KCNK9 block: i | KCNQ1 block: i | GSK3B inh: -11 | KCNQ1 act: i | HDAC3 inhib: -1

Records listed above printed as active in KCNK9 block.
| SMILES | KCNK3 block | PolyA inhibitor | GSK3 alpha inh | KCNK9 block | KCNQ1 block | GSK3B inh | KCNQ1 act | HDAC3 inhib |
| --- | --- | --- | --- | --- | --- | --- | --- | --- |
| O=C(c1ccco1)N(CCC(c1ccccc1)c1ccco1)Cc1ccccc1 (stereo not drawn) | i | i | -4 | -7.2* | i | -2 | i | 0 |
